NPYLR7 ag – activates Aedes aegypti NPYLR7 receptor; HEK293T NPYLR7/Galpha15, GCaMP6s calcium fluorescence; activation, % at 10 µM; actives 0.15% (n = 270,000); AID 1259423; in the data active means activation above about 40%;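 further: 0% = vehicle and 100% = reference agonist at the receptor; some compounds past the cut are filed as inactive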
NPYLR7 ag max-min – second read-out of NPYLR7 ag, no call of its own (marks repeat the call); activation, %; measured here: Max-Min RFU normalised activation; some inactives read as strong as hits;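 span of the calcium signal over five minutes; 0% = vehicle and 100% = native peptide agonist; compound fluorescence can raise it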
* hit, by the source's call; & = joins results of further samples.

Structure	NPYLR7 ag	NPYLR7 ag max-min
O=C(NC1CCCc2c1cnn2-c1ccc(F)cc1F)c1ccsc1 (stereo not drawn)	14	10
CC(C)(C)n1nc2c(c1NC(=O)C1(c3ccc(Cl)cc3)CCCC1)CSC2	-3	-6
CN1CCN(Cc2nc3c(c(=O)n(C)c(=O)n3C)n2Cc2c(F)cccc2Cl)CC1	0	-1
Cc1nn(C)c(C)c1C(=O)N1CCN(S(=O)(=O)c2ccc(Br)cc2)CC1	-6	-9
Cc1cnn(C(=O)c2cc(C)oc2C)c1	14	5
CCc1ccc(C(=O)COC(=O)C2CC3CCCC(C2)C32SCCS2)s1 (stereo not drawn)	-5	-5
CCc1cccc(C)c1NC(=O)CN1C(=O)NC(C)(C2CC2)C1=O (stereo not drawn)	10	4
CCCn1cc(C(=O)Nc2ccccc2)c2nn(-c3ccccc3)c(=O)c-2c1	5	3
CCCNC(=O)c1cc(-c2ccccc2OC)n2nc(C(C)(C)C)cc2n1	2	7
Cc1cccc(C)c1NC(=O)CN(C)CC(O)c1ccc(OC(F)F)cc1 (stereo not drawn)	6	-1

One compound at a time, as listed above. Order of values: NPYLR7 ag, NPYLR7 ag max-min
Record of Cc1cnn(C(=O)c2cc(C)oc2C)c1 → 14, 5
Record of CN1CCN(Cc2nc3c(c(=O)n(C)c(=O)n3C)n2Cc2c(F)cccc2Cl)CC1 → 0, -1
Record of O=C(NC1CCCc2c1cnn2-c1ccc(F)cc1F)c1ccsc1 (stereo not drawn) → 14, 10

(listing goes on)
Structure	NPYLR7 ag	NPYLR7 ag max-min
Cc1cccc(Oc2cc(C(F)(F)F)nc(SCc3cccc(Cl)c3)n2)c1	11	35
CCN1CCc2c(sc(NC(=O)C3=COCCO3)c2-c2nc3ccccc3s2)C1	60*	55*
COc1ccc(CN(Cc2ccco2)C(=O)c2ccc(Br)cc2)cc1OS(=O)(=O)c1cccc(C(F)(F)F)c1	16	23
O=C(COC(=O)c1ncc(Cl)c(Cl)c1Cl)NC(=O)NC1CCCC1	-2	31
C=CCOc1ccc(CN2CCN(C(=O)[C@@H]3CCCN3C(=O)[C@H](C)CSC(C)=O)CC2)cc1	-2	-1
Cc1nc2c(=O)n(CC(=O)N3CCN(c4ccccc4)CC3)nc(-c3ccco3)c2s1	2	-1
NC(=NOC(=O)N1c2ccccc2Sc2ccccc21)c1cccnc1	2	1
O=C(c1ccc(Cl)cc1)c1ccccc1C(=O)N1CCCC1c1ccncc1 (stereo not drawn)	-7	-13
CS(=O)(=O)CCNC(=O)CCC(=O)NC1CCCCCCC1	13	1
CCC(NC(=O)c1ccc2c(c1)OCO2)C1c2cc(OC)c(OC)cc2CCN1Cc1ccccc1 (stereo not drawn)	1	13
Cc1c(C(=O)N2CCN(Cc3ccc4c(c3)OCO4)CC2)cnn1-c1nccc(-c2cccs2)n1	11	4
CC1(C)[C@@]2(C(=O)NCCSc3ncn[nH]3)CC[C@]1(C)[C@@H](O)C2	15	5
CN(Cc1ccc(Cl)s1)C(=O)c1ccc(=O)n(C)n1	3	3
O=C(CCCSc1ccc(NC(=O)c2cccs2)nn1)Nc1cnc2ccccc2c1	-4	-4
CCN(CC)C(=O)C1CCCN(Cc2ccc3c(c2)CN(Cc2ccoc2)CCO3)C1 (stereo not drawn)	7	4
CCOC(=O)CSc1ncnc2c1nnn2Cc1ccc(F)cc1	3	16
NC(Cc1ccccc1)c1csc(Nc2ccc(C(F)(F)F)cn2)n1 (stereo not drawn)	-8	-13
CC(C)(C)C(O)C(N=O)n1cncn1 (stereo not drawn)	-2	-7
CC(C)(C)n1ncc2c(=O)n(NC(=O)/C=C/c3ccccc3)cnc21	1	1
Cc1c(C(=O)NCCc2nc3ccccc3[nH]2)cnc2ccnn12	5	2
O=C(NN=Cc1ccccc1C(F)(F)F)c1ccco1	-2	-5
C#CCN1C(=O)c2ccccc2NC1c1cn[nH]c1C(C)(C)C (stereo not drawn)	11	9
COCCNC(=O)c1ccc(-n2nc(-c3cccc(C(F)(F)F)c3)cc2N)cc1	4	6
CCOC(=O)c1cnc2sccn2c1=O	4&8	4&6
Cc1ccc(NC(=O)N(Cc2csc(COc3ccc(C)cc3)n2)C(C)C)cc1	-2	10
CC(C)Cn1nccc1NC(=O)c1ccco1	1	-2
O=C(NCCN1CCOCC1)c1coc(CN(CCc2c[nH]c3ccccc23)Cc2ccc(Cl)cc2)n1	18	13
COc1ccccc1OCc1cc(C(=O)N(C)Cc2cc(C3CC3)n[nH]2)n[nH]1	21	9
CC(C)Cc1ncc2c(n1)CN(C(=O)c1ccc(Cn3ccnc3)o1)C2	-4	-7
O=C(O)C1Cc2[nH]cnc2C(c2ccccc2)N1C(=S)Nc1ccc(Cl)cc1 (stereo not drawn)	-10	-12
CCCOCCNC(=O)c1c(C)noc1-c1cccc(C(F)(F)F)c1	1	-2
CCc1nc2ccc(C(=O)NCCCN(C)C)cn2c1N(C)C(=O)c1cccc(OC)c1	10	12
COC(=O)c1c(O)nc2scc(C)n2c1=O	-7	-9
COCCN(Cc1nccs1)C(=O)c1cc(C)nc2ccc(C)cc12	8	7
O=C(O)CN1C(=O)/C(=C\c2ccc(O)cc2)SC1=S	59*	42*
Cc1ccccc1Cn1cccc1CN(Cc1ccccc1)C(=O)Nc1c(C)cccc1C	18	19
Cc1cc(O)c(Sc2ccccc2[N+](=O)[O-])c(=O)n1C	2	6
O=C(O)c1cnn(-c2cccc(Br)c2)c1	-5	-3
COc1ccc(N2C[C@H](COCc3ccccc3)Oc3ncccc3C2=O)cc1	-1	9
COc1ccc(NC[C@@H]2C=C(C)[C@H](Cc3nnc(C)o3)C[C@H]2C(C)C)cn1	55*	44*

Taken from the entries so far (five entries):
Structure	NPYLR7 ag	NPYLR7 ag max-min
O=C(O)CN1C(=O)/C(=C\c2ccc(O)cc2)SC1=S	59*	42*
Cc1ccccc1Cn1cccc1CN(Cc1ccccc1)C(=O)Nc1c(C)cccc1C	18	19
Cc1cc(O)c(Sc2ccccc2[N+](=O)[O-])c(=O)n1C	2	6
O=C(O)c1cnn(-c2cccc(Br)c2)c1	-5	-3
COc1ccc(N2C[C@H](COCc3ccccc3)Oc3ncccc3C2=O)cc1	-1	9

New compounds follow
Structure	NPYLR7 ag	NPYLR7 ag max-min
COc1coc(CN2CCC(=O)N(CC3CC3)C(C(C)C)C2)cc1=O (stereo not drawn)	1	35
COCCN(Cc1cc(NC(=O)c2cccs2)ccc1N(C)C)C(=O)C1CC1	25	30
C[C@]12CCC3c4ccc(O)cc4CCC3C1CC[C@@H]2O (stereo partly drawn)	1	-5
COc1ccc(C2SCC(=O)N2CCO)cc1 (stereo not drawn)	1	-6
Cc1ccc(C)c(Cn2nc(C3CCN(S(C)(=O)=O)CC3)n(C)c2=O)c1	-4	4
O=c1[nH]c2ccc(Br)cc2[nH]c1=O	-1	-6
COC(=O)C1=C(C)N(C)C(=O)NC1c1ccc(O)c(OC)c1 (stereo not drawn)	1	-3
Cc1cccnc1CN1CCN(C(=O)Cn2nnnc2CN(C)C(C)C)CC1	6&0	4&-3
CC(C)(C)c1ccc(C(=O)NCCn2ncc3c(=O)n(Cc4ccccc4F)cnc32)cc1	-6	-9
S=c1[nH]nc(SCc2ccc(I)cc2)c2[nH]cnc12	7	7
Cc1ccc(S(=O)(=O)N2CCC(C(NC(=O)CC(C)C)C(=O)N3CCCCC3)CC2)cc1 (stereo not drawn)	-1	6
O=C(Nc1cc(C(F)(F)F)ccc1Cl)N1CC(=O)N2CCc3ccccc3C2C1 (stereo not drawn)	-1	11
COc1ccc(NCC(=O)N2CCCC2c2cccs2)cc1OC(F)F (stereo not drawn)	13	11
Oc1cc2c(c(Cl)c1O)CCNCC2c1ccccc1 (stereo not drawn)	2	-17
Cc1ccc(C(C)NC(=O)N2CCCC2c2ccsc2)o1 (stereo not drawn)	-2	-2
COc1ccc(OC)c(C2SCC(=O)N(CC(=O)NC3CC3)c3c2c(-c2ccccc2)nn3-c2cccc(C)c2C)c1 (stereo not drawn)	16	17
CCOc1ccc(C(C)=O)cc1Cn1ncc2ccccc2c1=O	4	1
Cc1cccn2c(CNC(=O)CCC(=O)NC3CCCC3)cnc12	1	-5
CNc1nc2cnc(Nc3ccc(C(C)C)cc3)cc2n1CC1CC1	14	5
Nc1ncnc2c1c1c(c(=O)n2-c2ccccc2)CCCC1	22	13
COc1cc(C2c3c(C)nn(C(C)C)c3N=C3COC(=O)C32)cc(OC)c1OC (stereo not drawn)	-2	-8
c1cncc(CN2CCC(NCc3cccc(-n4cccn4)c3)CC2)c1	1	0
Cc1ccccc1NC(=O)C(C)N1CCCC1 (stereo not drawn)	-12	-20
CCOC(=O)c1ccc(NC(=O)N(CCCOC)CC(=O)N(CCc2c[nH]c3ccccc23)Cc2ccc(F)cc2)cc1	6	7
C=C(NC(=O)c1cccc(O)c1O)C(=O)OCC(NC(=O)c1cccc(O)c1O)C(=O)OC (stereo not drawn)	8	0
Cn1c(N)c(S(=O)(=O)NCc2ccc(F)cc2)c(=O)n(C)c1=O	2	0
COc1ccc(-n2c(SCC(=O)N3CCN(C(=O)c4ccccc4F)C(C)C3)nnc2-c2cccc(OC)c2)cc1 (stereo not drawn)	-15	-11
O=C(Nc1ncc(Cc2ccc(Br)cc2)s1)c1ccccc1Cl	1	1
O=c1n(CN2CCc3cc(S(=O)(=O)N4CCCCC4)ccc32)nc2ccccn12	9	3
Cc1ccc(C)c(NC(=O)CCCn2nc(-c3ccc(Cl)cc3)ccc2=O)c1	12	12
COC(=O)c1ccccc1C=C1N=C(c2ccccc2F)OC1=O	7	1
CCOC(=O)Cc1c(C)nc2ncnn2c1N1CCN(C/C=C/c2ccccc2)CC1	18	11
COc1cccc(Cn2c3c(c(C)c2C(=O)Nc2cccc(F)c2)CCCC3)c1	20	18
CC1=C(C(=O)O)N2C(=O)[C@@H](NC(=O)C(N)c3ccccc3)[C@H]2SC1 (stereo partly drawn)	-5&3	-13&-6
CCOC(=O)N1CCN(C(=O)Cc2csc(NC(=O)CN(CCOC)C(=O)c3ccco3)n2)CC1	-8	3
CCC(Sc1nncn1CC(F)(F)F)c1ccc(F)cc1 (stereo not drawn)	3	-3
CCSc1ncc(-c2c(-c3ccccc3)ncn2Cc2cccnc2)cn1	1	-3
O=C(NNC(=O)c1ccco1)c1ccc(=O)n(Cc2ccc(Cl)cc2)c1	-10	-15
Cc1cc(NC(=O)CN2CCOc3ccccc32)no1	0	0
COc1ccc(Cn2ccnc2CN(CC(C)C)C(=O)c2ccco2)cc1	16	10
CC(=O)c1ccc(S(=O)(=O)NCCCn2ncccc2=O)cc1	-2	-5
FC(F)(F)c1cccc(N2CCN(C3CCCN(Cc4c[nH]c5ccccc45)C3)CC2)c1 (stereo not drawn)	-2	-1
Cc1ccccc1COC1CCCN(C(=O)Nc2cccc(Cl)c2)C1 (stereo not drawn)	-7	-4
Cc1c(CNC(=O)c2cc(COc3ccccc3F)[nH]n2)oc2ccccc12	-4	-5
c1ccc(-c2cn3c(nc4ccccc43)[nH]2)cc1	12	1
CCCC(NC(=O)c1ccc(C)cc1C)c1nn[nH]n1 (stereo not drawn)	-3	-2
O=C(NCC1CC1)[C@@]1(OCc2ccc(F)cc2)CC(OCc2cccc(C(F)(F)F)c2)[C@H](O)[C@H](O)C1 (stereo partly drawn)	21	11
Cc1onc(-c2c(Cl)cccc2Cl)c1C(=O)Nc1cccc(F)c1	4	3
Cc1cc(C)c(NC(=O)C2=NN(C3CCS(=O)(=O)C3)C(=O)CC2)c(C)c1 (stereo not drawn)	3	2
CN1CC2(CCN(C(=O)c3cccc4cc[nH]c34)C2)OC1=O (stereo not drawn)	4	3

The list goes on:
Structure	NPYLR7 ag	NPYLR7 ag max-min
COc1ccc(-c2cc(C(=O)Nc3ccc(C)c(C)c3)c(C)n2-c2ccccc2Cl)cc1	21	25
Cc1ccc(-c2nc3ccc(Cl)cn3c2NC2CCCCC2)cc1	6	11
COc1ccc(N2C(=O)C(c3c(C(C)C)[nH]n(-c4ccc(Cl)cc4)c3=O)=C(N3CCN(C)CC3)C2=O)c(OC)c1	6&7	18&14
CCOc1ccc(C(=O)N(C)c2nnc(C34CC5CC(CC(C5)C3)C4)s2)cc1	-1	-3
CC1SCCN1S(=O)(=O)c1ccc(Cl)cc1 (stereo not drawn)	3	0
O=C1NC(C(F)(F)F)CCC1C(=O)N1CCc2ccccc2C1 (stereo not drawn)	-2	-3
O=C(Cn1nc2c3sc(N4CCCC4)nc3ncn2c1=O)Nc1ccccc1Br	1	0
O=C1OC(Nc2ccc(Br)cc2F)c2ccccc21 (stereo not drawn)	13	2
COCCN(Cc1cc(Cl)ccc1OS(=O)(=O)c1ccc(NC(C)=O)cc1)C(=O)c1cccs1	19	23
COCCNC(=O)CSc1nc(N)c(NC(=O)c2ccccc2)c(=O)[nH]1	-6	-9
Nc1ccn([C@@H]2O[C@H](CO)[C@@H](O)C2(F)F)c(=O)n1	-4&-7	-6&-10

Source: PubChem BioAssay (Fisher Drug Discovery Resource Center)

Some of the compounds tested; rates above refer to the full screens.
